Source: PubChem (ICCB-Longwood Screening Facility, Harvard Medical School)
LANA-nucl inh – inhibitors of KSHV LANA binding to nucleosomes; FITC-LANA1-23 / chicken nucleosome fluorescence polarization; active compounds read low; z-score (test concentration not listed); 0.3% of 51,000 active;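 active = both repeat wells score below -2 in polarization z-score versus plate sample wells, excluding overly bright wells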;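 also: 100 nL library stock added to about 30 µL; numbers are from one replicate; some results filed as inactive read as strong as hits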
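test system = FITC-LANA peptide and chicken nucleosomes | amount = 240 nM purified chicken nucleosomes (480 nM peptide binding sites), final | reagent = 50 nM FITC-LANA1-23 probe | medium = TEN-BT buffer, pH 7.5 | doses = single compound addition by pin transfer, 100 nL per well | timing = 10–45 min, room temperature | detection = fluorescence polarization | repeats = duplicate plates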
Ab BasE inh – BasE siderophore biosynthesis inhibition | purified BasE, fluorescence polarization binding displacement | inhibition, % (no concentration beside the values) | 0.1% of 84,000 active | AID 485350;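 active = both replicates above 25% with normal brightness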;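 also: 0% = negative plate control signal and 100% = positive plate control signal; stock transfer was 100 nL into about 30 µL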
Starred values were filed as active, the others as inactive; . = no result given; & = joins results of further samples. Only part of the results is shown (hit frequency here may not be typical).

mol | LANA-nucl inh | Ab BasE inh
CCOC(=O)C1CCN(C(=O)COC(=O)c2ccc(C#N)cc2)CC1 | . | 1.2
CCCC(=O)Nc1ccc(NC(=O)c2ccc3c(c2)OCO3)cc1 | -1.3 | -0.3
Cc1ccc(CN2CC(C(=O)N3CCOCC3)CC2=O)cc1 (stereo unspecified) | . | 2.3
CC(=O)n1c2ccccc2c2c1c1ccccc1n2C | 0.29 | 0.2
N#Cc1c(C(F)(F)F)cc(-c2cccs2)nc1SCc1nc2c(oc3ccccc32)c(=O)[nH]1 | . | 0.6
O=C(O)CCn1ccc2cc(S(=O)(=O)N3CCCC3)ccc21 | 0.8 | -0.1
Fc1ccccc1Nc1ncnc2c1nnn2Cc1ccccc1 | 0.86 | -7.0
CCOC(=O)c1cc(Cl)c(O)c(Cl)c1 | . | 0.1
CCOc1ccccc1NC(=O)CNC(C)c1ccccc1OC (stereo unspecified) | . | -6.1
CN(Cc1nc2ccccc2c(=O)[nH]1)Cc1nc2sc3c(c2c(=O)[nH]1)CCCC3 | . | 0.2
CCOc1cccc(/C=N/NC(=O)c2cccc(S(=O)(=O)N(CC)CC)c2)c1O | . | -0.5
OCC12CC3CCC(CC(C3)C1)C2 | 0.32 | 2.9
Cc1cc(=O)[nH]c(Nc2ccc(O)cc2)n1 | 0.059 | 0.2
CCC1CCCCN1C1Sc2ccc(C(=O)OC)cc2NC1=O (stereo unspecified) | 0.36 | -0.9
CCCN(CCC)C(=O)C(C)Sc1nc2ccccc2c(=O)n1C (stereo unspecified) | 0.74 | 1.3
Cc1cc(N2CCCC2)nc2ccccc12 | 1.1 | .
NNC(=O)c1ccc(COc2ccccc2)o1 | . | -1.3
CC(C)Oc1ccc(CSCCN)cc1 | -0.81 | -0.2
COc1ccc(C2=[N+]([O-])C(C)(C)C(c3ccccc3)=N2)cc1 | . | 4.2
c1ccc(CCN2CNc3nc4ccccc4n3C2)cc1 | -0.16 | 2.4
CCOC(=O)c1nnc(-c2ccc(CN3CCc4ccccc4C3)cc2)o1 | -0.88 | 1.2
COC(=O)c1ccc(N=Nc2sc3ccccc3c2O)cc1 | 0.37 | 0.5
O/N=C(\C=N\O)C12CC3CC(CC(C3)C1)C2 | 0.043 | 1.1
Cc1ccc(S(=O)(=O)NCC(c2cccnc2)N(C)C)cc1 (stereo unspecified) | -1.2 | 3.1
COc1cc(C#N)ccc1OCC(=O)c1cc(C)n(C)c1C | . | -1.1
Cc1cccc(-n2nnnc2SCCCC(=O)c2ccccc2)c1 | . | -0.2
O=C(O)CCc1nnc(SCc2ccc(Cl)cc2Cl)[nH]c1=O | 1.1 | 1.7
COc1ccc(-c2nnc3sc(CN4CCCCC4)cn23)cc1 | 0.79 | -1.4
CC1CCCC(C)N1CCCNC(=O)c1ccc(N2CCCC2=O)cc1 (stereo unspecified) | 0.99 | -0.2
O=C(Nc1ccc(-c2cn3cccnc3n2)cc1)C1CCCC1 | 0.64 | -0.4

Reprinted from the part before: two compounds; new compounds follow.
mol | LANA-nucl inh | Ab BasE inh
CC1CCCC(C)N1CCCNC(=O)c1ccc(N2CCCC2=O)cc1 (stereo unspecified) | 0.99 | -0.2
O=C(Nc1ccc(-c2cn3cccnc3n2)cc1)C1CCCC1 | 0.64 | -0.4
Cc1nc(SCC(=O)N(c2ccccc2)C2CCS(=O)(=O)C2)n(CC(C)C)c1C (stereo unspecified) | . | -0.4
O=C(/C=C/c1ccc(-c2cccs2)s1)N1CCSCC1 | . | 2.4
Cc1cc(C)cc(OCC(=O)OCC(=O)c2ccc3c(c2)NC(=O)CO3)c1 | . | -4.1
CCOC(=O)C1CCN(C(=O)N2c3ccccc3Sc3ccccc32)CC1 | . | -0.5
CCN(CC)C(=O)COc1ccc(Br)cc1Cl | -0.6 | -0.6
Nc1nnc(SCC(=O)NC(=O)C2COc3ccccc3O2)s1 (stereo unspecified) | . | -4.1
O=C(Cc1ccc(S(=O)(=O)N2CCCCC2)s1)OCC(=O)c1ccccc1 | . | -2.8
Cc1cc(C)nc(NCC(O)CNc2ccccc2Cl)n1 (stereo unspecified) | -0.63 | 1.1
CN1C(=O)c2ccc(-c3nc4ccccc4s3)cc2C1=O | 1.7 | -0.7
CSc1ccc(S(=O)(=O)NCc2ccccc2)cc1 | -1.4 | -0.2
CCC(Sc1nncn1C)C(=O)Nc1sc2c(c1C#N)CCCC2 (stereo unspecified) | 0.55 | 0.7
N#Cc1c2c(c(-c3ccco3)n3c1nc1ccccc13)CCCC2 | . | 13
O=C(CSc1cccc[n+]1[O-])c1ccccc1F | . | 1.8
O=C(O)Cn1ncc(=O)c2ccccc21 | . | 1.6
O=C(COc1ccc(-c2nc3ccccc3s2)cc1)N1CCOCC1 | . | -2.5
NC(=O)COc1ccc(C2c3c(oc4ccccc4c3=O)C(=O)N2CCCO)cc1 (stereo unspecified) | 0.53 | 0.4
CCNc1nc(-c2cc(C)n(-c3ccc4c(c3)OCCO4)c2C)cs1 | . | -9.0
O=C1CCC(=O)N1CCSSCCN1C(=O)CCC1=O | -0.67 | 1.1
O=C(CSc1nnc(-c2ccncc2)o1)N1CCCC1 | 0.43 | 0.5
CCOC(=O)c1c[nH]c2ccc(C(F)(F)F)cc2c1=O | -0.49 | .
C#CCN1CCS(=O)(=O)CC1 | -0.012 | 4.9
COC(=O)C1CCN(CC(O)COCc2ccc(OC)c(OC)c2)CC1 (stereo unspecified) | . | 3.6
CS(=O)(=NC=C(C#N)C#N)c1ccc(Cl)cc1 (stereo unspecified) | 1 | 0.2
CC(SCc1ccccc1)C(=O)NC1CCCC1 (stereo unspecified) | 0.55 | 2.9
CCCCNS(=O)(=O)c1ccc2c(c1)nc(CCC)n2CCCC | . | -2.2
O=C1CCCCC1Sc1nnc(-c2ccc3c(c2)OCO3)n1-c1ccccc1 (stereo unspecified) | . | -1.2
O=C(C1=C(Nc2ccc(O)cc2)CCCC1)C(F)(F)F | -0.39 | 0.3
COc1cc(CC(=O)Nc2cc(Cl)ccc2Sc2nncn2C)cc(OC)c1OC | . | 0.1
O=C(Cn1c(=O)n(Cc2ccco2)c(=O)c2oc3ccccc3c21)Nc1cccc(Cl)c1 | 0.35 | 1.3
CCc1nnc2n1NC(c1ccccc1)C(C(=O)Nc1ccccc1)S2 (stereo unspecified) | 1.3 | -2.1
CCCOc1ccc(C(=O)Nc2ccc(NC(=O)c3ccco3)cc2)cc1 | . | 2.1
CC1CCCC(NC(=O)CCn2cnc3onc(-c4ccc(F)cc4)c3c2=O)C1C (stereo unspecified) | . | 0.5
Cc1ccc(N2C(=O)CC(N3CCC(NS(=O)(=O)c4ccccc4)CC3)C2=O)cc1 (stereo unspecified) | 0.13 | 4.9
CCOc1ccccc1N1CCN(CC(=O)C(C#N)c2nc(C)cs2)CC1 (stereo unspecified) | . | 0.7
CCCn1c(=O)/c(=C\c2ccco2)s/c1=C(/C#N)c1nc2ccccc2s1 | . | -18
N#Cc1cccn1-c1nccs1 | 0.29 | .
O=C(O)c1ccc(-c2nc3ccccc3[nH]2)cc1 | -0.31 | 0.2
NC(=O)c1cc2n(n1)C(C(F)(F)F)CC(c1ccc(Cl)cc1)N2 (stereo unspecified) | -0.43 | 1.8
O=C(CSc1nccc(=O)[nH]1)N1CCOCC1 | 1.7 | -2.5
CC(C)[C@H](N)c1nnc(SCc2cccc(F)c2)o1 | 0.35 | -0.6
Cc1cccc(OCc2nc(-c3ccc(OCC(N)=O)cc3)no2)c1 | -0.29 | 1.8
Cc1cc(NCCc2ccccc2)c2nncn2n1 | -0.018 | 0.8
Cc1nn2c(N)c(C#N)cnc2c1C(N)=O | -0.94 | 3.7
CCOC(=O)c1cnn(-c2ncc(C(=O)OC)c(C(F)(F)F)n2)c1C(F)(F)F | -0.32 | 1.2
CC(C)P(=O)(c1cccc(C(=O)O)c1)C(C)C | -0.37 | .
S=c1nc[nH]c2nc[nH]c12 | -0.26&0.25 | -0.6
Cc1onc(-c2ccccc2)c1C(=O)Oc1ccccc1 | . | 0.5
Cc1ccc(Cn2c3ccccc3c3nnc(NCC4CCCO4)nc32)cc1 (stereo unspecified) | -0.55 | -0.1
CS(=O)(=O)Nc1nc2ccccc2[nH]1 | . | 2.7
Cc1csc2nc(CSc3nc4ccc(Cl)cc4c(=O)n3CC(C)C)cc(=O)n12 | . | -3.1
O=C(CSc1nsc(SCC(=O)c2ccccc2)n1)c1ccccc1 | . | 1.2
O=C1c2nccnc2C(=O)N1c1cccc(C(F)(F)F)c1 | -1 | 0.1
CCNc1nc2ccccc2n1Cc1ccccc1F | 0.18 | .
CNCC1C(C)C=C(C)CC1C (stereo unspecified) | -0.85 | 3.0
O=S(=O)(Cc1ccccc1Cl)NC1CCCCC1 | -0.19 | 0.9
CC(C)C(NC(=O)OCc1ccccc1)C(=O)N1CCOCCOCCOCC1 (stereo unspecified) | 1.2 | -0.9
CCCSc1n[nH]c(-c2ccc(C)cc2)n1 | . | -1.4
Brc1cccc(-c2cn3ccccc3n2)c1 | 0.78 | 0.5
Cc1cc(C(=O)CSc2nnc(C(F)(F)F)n2C)c(C)n1Cc1ccco1 | . | -0.8
CCCCc1ccc(NS(=O)(=O)CC(C)C)cc1 | 0.58 | 2.9

Ordered by number of heavy atoms (descending): part of the list above.
mol | LANA-nucl inh | Ab BasE inh
Cc1csc2nc(CSc3nc4ccc(Cl)cc4c(=O)n3CC(C)C)cc(=O)n12 | . | -3.1
Cc1cc(C(=O)CSc2nnc(C(F)(F)F)n2C)c(C)n1Cc1ccco1 | . | -0.8
O=C(CSc1nsc(SCC(=O)c2ccccc2)n1)c1ccccc1 | . | 1.2
Cc1onc(-c2ccccc2)c1C(=O)Oc1ccccc1 | . | 0.5

The list goes on.
mol | LANA-nucl inh | Ab BasE inh
CCCc1cc(C(=O)Nc2ccc(CC)cc2)no1 | -0.28 | 3.5
CCC1CCCCN1C(=O)/C=C/c1ccccc1Cl (stereo unspecified) | -1.2 | -0.1
CC(=O)Nc1c(NC(C)(C)C)c2ccccc2oc1=O | 0.018 | -0.1
O=C(O)CNC(=O)Nc1ccccc1 | . | -0.9
Clc1ccccc1N=C/C=C1\NN=NC1c1ccc(Br)cc1 (stereo unspecified) | . | 0.7
Cc1ccc(S(=O)(=O)N2CCN(Cn3nc(C)sc3=S)CC2)c(C)c1 | . | 3.2
COc1cccc(/C=N/NC(=O)C2CCCN(C(=S)NNC3CC4C=CC3C4)CC2)c1O (stereo unspecified) | 2 | 1.5
NC(=O)C1CCCN(Cc2ccc3ccccc3c2)C1 (stereo unspecified) | -0.41 | -1.0
O=C(Cn1cnc2ccccc21)OCC(=O)N1CCCC1 | . | 0.8
CCCCC(=O)Nc1cccc(NC(=O)c2cc3ccccc3o2)c1 | 0.46 | 1.3
O=C(CN1C(=O)c2ccccc2C1=O)N(Cc1ccccc1)Cc1ccccc1 | . | 0.7
COc1ccc(C2C(C(=O)O)c3ccccc3C(=O)N2C)cc1 (stereo unspecified) | -1.2 | 0.7
O=C(CSc1nnnn1C1CC2C=CC1C2)Nc1cccc(C(=O)O)c1 (stereo unspecified) | -0.044 | 0.5
CCn1c(SCc2ccc(C)cc2)nnc1-c1ccc(S(=O)(=O)N2CCOCC2)cc1 | -0.84 | 2.0
CCC(Sc1nc(N)cc(=O)[nH]1)C(=O)Nc1ccccc1C#N (stereo unspecified) | 0.34 | 2.2

The final 2 compounds of the section before lead into the next.
mol | LANA-nucl inh | Ab BasE inh
CCn1c(SCc2ccc(C)cc2)nnc1-c1ccc(S(=O)(=O)N2CCOCC2)cc1 | -0.84 | 2.0
CCC(Sc1nc(N)cc(=O)[nH]1)C(=O)Nc1ccccc1C#N (stereo unspecified) | 0.34 | 2.2
Cc1ccc(I)c(C(N)=O)c1 | 0.22 | 0.8
O=C1OC2CC1(O)CC(O)C2O (stereo unspecified) | . | 1.8
O=C(NC1CC2CCCC(C1)N2C(=O)Nc1ccccc1)C1CC1 (stereo unspecified) | 0.24 | 0.7
COC(=O)C1=C(C)NC(C)=C(C(=O)OC)C1C(=O)OCc1nc2cc(C(=O)OC)ccc2c(=O)[nH]1 | . | 0.0
Cc1c(NC(=O)c2ccc3c(c2)C(=O)N(C)C3=O)cccc1C(=O)O | -0.28 | 3.9
O=C(/C=C/c1cccc(C(F)(F)F)c1)NCc1ccco1 | . | -3.2
CC(C)C(=O)OCC(=O)Nc1cccc(Cl)c1 | . | 0.4
COc1ccccc1N(CC(=O)N(C)Cc1ccccc1)S(C)(=O)=O | . | -2.6
O=C(COC(=O)c1ccccc1SCC(=O)N1CCCC1)Nc1ccc2c(c1)OCO2 | . | 3.6
COCCn1c(C)cc(C=C2C(=O)N(C)C(=S)N(C)C2=O)c1C | . | -0.1
O=C(CS(=O)(=O)c1ccccc1)Nc1nccs1 | -0.75 | 0.4
O=c1[nH]c2ccccc2n1Cc1ccccc1 | -0.4 | 1.6
C/C(CCc1oc2c(Br)cc(C)cc2c1-c1ccc(C)o1)=N\NC(N)=S | -0.087 | -1.5
CC(C(=O)N1CCCc2ccccc21)n1nc(-c2cccs2)oc1=O (stereo unspecified) | . | -0.4
Cc1cc(C)c2cccc(NC(=S)NC(=O)/C=C/c3ccccc3)c2n1 | . | 3.1
COc1ccc(C)cc1NC(=S)NCc1cnn(C)c1 | 0.2 | 0.1
CCN1C(=O)/C(=C/c2ccccc2)SC1=Nc1cccc(C(=O)O)c1 | 0.34 | 6.0
O=c1cc(CNC2CCCCC2)c2ccccc2[nH]1 | 1.4 | 0.5
CSc1nc2ccccc2n1CC(=O)NC1CCCc2ccccc21 (stereo unspecified) | . | 0.7
